# Screening results: PubChem BioAssay, several laboratories
# BJeLR viability = kills HRASV12-expressing BJeLR cells; BJeLR (HRASV12) viability, CellTiter-Glo ATP luminescence, 48 h; reference of the scale not given here; inhibition, % (test concentration not listed); actives 0.17% (n = 300,000);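 active means replicate mean above 50%; inconclusive means above 50% but judged a plate artefact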;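 further: 50 nL library stock added to about 25 µL; numbers are from one replicate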
# ugtP null kill = growth inhibition of S. aureus ugtP deletion strain. S. aureus RN4220 ugtP deletion, OD600 growth, 16 h; some inactives read as strong as hits. growth inhibition, % (no concentration beside the values). actives 0.54% (n = 330,000). AID 1259309;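 active means z-score under -3 and OD600 up to 0.15 on both plates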;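 further: plate controls were untreated wells for no effect and antibiotic for full effect; wells of about 80 µL received 100 nL stock; the first replicate is given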
# Sa RN4220 lethal = kills Staphylococcus aureus RN4220; S. aureus RN4220 growth, OD600, 16 h; inhibition, % (test concentration not listed); actives 0.33% (n = 330,000); AID 1259311;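 active means z-score of -3 or lower and OD600 up to 0.18 on both plates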;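 further: plate controls were untreated cells for no effect and reference antibiotic for full effect; stock transfer was 100 nL into about 80 µL; one replicate is shown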
# Bead autofluor = compound fluorescence in toxin protease inhibitor counterscreen | fluorescence intensity (concentration not given with the values) | actives 3.1% (n = 360,000) | compound autofluorescence counterscreen, microsphere flow cytometry; stronger effect = higher value;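 active means at least 3 SD above the mean of all compounds, about 16000 in these data; inconclusive means too few beads counted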;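 further: 100 nL of 1 mM stock went into each well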
# Mtb hypoxia inh = inhibitors of hypoxia-regulated fluorescent reporter in Mycobacterium tuberculosis | M. tuberculosis hypoxia-regulated fluorescent reporter, fluorescence | fluorescence inhibition, % (test concentration not listed) | actives 0.1% (n = 300,000) | AID 1159583;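 active means 35 to 45% if threefold the growth effect, above 45% if 1.5-fold the growth effect; inactive means the rest, general growth blockers included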;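 further: wells of about 50 µL received 100 nL stock; 0% = vehicle wells and 100% = reference inhibitor wells; whole bacteria with a GFP reporter of the hypoxia response; strong numbers were not always called active; many hits fall short of the cut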
# PrP 5UTR inh = suppresses PrP 5' UTR mRNA reporter expression; cell-based PrP 5' UTR mRNA reporter, plate reader; inhibition, % (no concentration beside the values); actives 0.35% (n = 340,000); AID 488862;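 active means every replicate at 50% or more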;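 further: 0 = median of the neutral control wells; tested in H4 reporter cells; numbers are from one replicate; inactives centre near -14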
# Mtb hypoxia inh growth = second read-out of Mtb hypoxia inh, no call of its own (marks repeat the call); growth inhibition, %; measured here: M. tuberculosis growth (absorbance);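 0% = vehicle and 100% = reference antibiotic; read after six days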
# * = called active by the depositor; ? = inconclusive; · = no result given.
# The line under a structure holds: BJeLR viability	ugtP null kill	Sa RN4220 lethal	Bead autofluor	Mtb hypoxia inh	Mtb hypoxia inh growth	PrP 5UTR inh
O=C(O)C1CCCCC1C(=O)NCCc1ccncc1 (stereo not drawn)
    7	-3	-0.5	2408	·	·	-10
O=[N+]([O-])c1nn(-c2ccccc2)[n+]([O-])c1N1CCN(c2ccccc2F)CC1
    -1	0	-0.1	1985	1	3	0
Cc1ccc(OCC(O)CN2CCCC2)cc1 (stereo not drawn)
    -1	14	-0.7	3566	15	7	-15
COC(=O)C(O)(CC(=O)Nc1cc(OC)c(OC)c(OC)c1)C(F)(F)F (stereo not drawn)
    -2	6	0.1	5324	·	·	-27
Cc1nc2sc(C(c3ccco3)N3CCOCC3)c(O)n2n1 (stereo not drawn)
    -2	-2	2.0	10954	-2	-2	-17
O=C(COC(=O)c1cccc(F)c1)NC(=O)NCc1ccccc1
    ·	3	2.6	?	2	-3	-14
COc1cccc(/C=C2/C(=O)NN(c3ccc(C)c(C)c3)C2=O)c1
    -5	1	3.0	4267	9	18	-11
CCc1ccc(-c2cc(C)no2)cc1S(=O)(=O)Nc1ccc(Cl)cn1
    3	-2	-0.3	4214	13	-2	-13
Cc1cc(C)c(-n2nnnc2SC(C)C)c(C)c1
    -8	11	7.1	2553	1	3	-9
CNc1c(NS(=O)(=O)c2cc(NC(C)=O)ccc2C)c(=O)oc2ccccc12
    -7	3	5.4	3672	5	12	-23

# Grouped by structure, the entries above with nitrogen in an aromatic ring.
# The line under a structure holds: BJeLR viability	ugtP null kill	Sa RN4220 lethal	Bead autofluor	Mtb hypoxia inh	Mtb hypoxia inh growth	PrP 5UTR inh
O=C(O)C1CCCCC1C(=O)NCCc1ccncc1 (stereo not drawn)
    7	-3	-0.5	2408	·	·	-10
O=[N+]([O-])c1nn(-c2ccccc2)[n+]([O-])c1N1CCN(c2ccccc2F)CC1
    -1	0	-0.1	1985	1	3	0
Cc1nc2sc(C(c3ccco3)N3CCOCC3)c(O)n2n1 (stereo not drawn)
    -2	-2	2.0	10954	-2	-2	-17
CCc1ccc(-c2cc(C)no2)cc1S(=O)(=O)Nc1ccc(Cl)cn1
    3	-2	-0.3	4214	13	-2	-13
Cc1cc(C)c(-n2nnnc2SC(C)C)c(C)c1
    -8	11	7.1	2553	1	3	-9

# (more compounds)
# The line under a structure holds: BJeLR viability	ugtP null kill	Sa RN4220 lethal	Bead autofluor	Mtb hypoxia inh	Mtb hypoxia inh growth	PrP 5UTR inh
COc1cccc(NC(=O)CN(C)C(=O)c2cc(-c3cccc(Br)c3)nc3ccccc23)c1
    -9	-6	-7.7	·	1	-3	-19
c1ccc(-c2nc(N3CCOCC3)sc2-c2ccccc2)cc1
    6	66	0.4	3981	7	-5	-18
CCC1Oc2ccc(C)cc2N(CC(=O)NC2CCCCC2)C1=O (stereo not drawn)
    1	5	3.5	5538	5	4	-7
CCc1nnc(NC(=O)c2ccc(-c3ccc(Cl)cc3)o2)s1
    2	-6	3.1	2839	·	·	-17
CCCCNC(=O)N1CCN(C(=O)C2CCCO2)CC1 (stereo not drawn)
    -11	1	4.0	2548	7	5	-4
COc1ccc(CC(=O)Nc2nc(C)cs2)cc1OC
    ·	1	-1.2	3177	·	·	-5
CCOC(=O)c1ccc(Nc2sc(C(=O)c3cccc([N+](=O)[O-])c3)c(N)c2C#N)cc1
    48	-4	5.4	3825	10	7	19
Cc1cc(C)c(NC(=O)C2=CCN(S(=O)(=O)c3ccc(F)cc3)CC2)c(C)c1
    -4	6	4.1	5614	·	·	1
NC1=NC[C@H](Cc2ccccc2)N1CCc1cc(C(F)(F)F)cc(C(F)(F)F)c1
    -3	·	·	2988	·	·	-6
Cc1nc(SC2CC(=O)N(c3cc(Cl)cc(Cl)c3)C2=O)nc2c1CCCC2 (stereo not drawn)
    27	-7	19	4789	·	·	7
CCCCc1nccn1CCn1ccnc1CCCC
    -5	-2	1.2	9309	-6	5	-22
CCCCn1nc(C(=O)NC2CCCCCC2)c2ccccc2c1=O
    ·	4	1.0	3630	-2	13	1
CCc1ccc(C(O)(c2ccccc2OC)C(CN2CCOCC2)c2ccccc2)cc1 (stereo not drawn)
    20	-4	-5.2	4317	-1	16	-38
Cc1ccc(-c2cc3onc(-c4ccccc4)c3c(=O)n2C)cc1
    ·	12	10	3862	2	0	61*
COc1cc(C=NNC(=O)c2ccc(O)cc2)ccc1OCC(=O)Nc1cccc([N+](=O)[O-])c1
    ·	2	2.1	·	-2	3	·
O=C(O)c1ccccc1C(=O)Nc1ccccc1[N+](=O)[O-]
    9	-7	3.5	4675	12	4	-19
CCOc1ccc(/C=N/NC(=O)C(=O)NCc2ccco2)cc1
    6	·	·	2545	·	·	-16
C=CCNc1cccc(Br)c1
    -2	8	8.5	4628	19	7	-6
CCN(CC)S(=O)(=O)c1ccc(OC)c(NC(=O)c2ccc([N+](=O)[O-])cc2)c1
    -3	2	6.3	3407	2	4	-19
COc1ccc(C(=O)Nc2ccc(S(=O)(=O)Nc3ncccn3)cc2)cc1OC
    -6	-2	3.6	4575	23	37	-3
O=C(C#Cc1ccccc1)Nc1ccccc1F
    3	0	7.0	4033	2	2	-60
CCS(=O)(=O)NCc1ccc2c(c1)cc(C)n2C
    -11	-5	1.0	4442	0	5	-28
CCCC(=O)Nc1nnc(S(=O)(=O)N2CCCCCC2)s1
    4	11	0.8	4325	8	2	-8
COc1ccc(C2CC(=O)C(C=NCCCO)=C(O)C2)cc1 (stereo not drawn)
    0	-1	3.1	5924	-8	-12	-20
CC(=O)Cn1cnc2c(sc3nc(C)cc(C)c32)c1=O
    -9	-4	2.6	4103	2	11	-36
CC(C)N(C(=O)COC(=O)CNC(=O)c1ccc(Br)cc1)c1ccccc1
    -6	10	3.1	2015	3	1	1
CSCCC(NC(=O)c1ccco1)C(=O)O (stereo not drawn)
    9	10	-1.1	5378	·	·	-25
CN1C(=O)C2C(C1=O)C(c1cccc(Br)c1)N1C(=O)c3ccccc3NC(=O)C21 (stereo not drawn)
    ·	-8	4.9	·	4	3	·
Cn1c(C(=O)Nc2ccc3c(c2)OCCO3)cc2c(=O)n(C)c3ccccc3c21
    -2	6	6.6	6368	·	·	-19
COCCCn1c(C(=O)N2CCOCC2)cc2c(=O)n3cccc(C)c3nc21
    5	7	3.3	5855	4	6	-23
Cc1ccc(NC(=O)CN2CCCCCC2)c(Br)c1
    -5	2	6.2	24257*	11	4	-95
CCOc1ccc(N=Cc2c(O)n(CCc3ccc(OC)c(OC)c3)c(=O)[nH]c2=O)cc1
    9	-16	9.7	3971	-7	6	-25
CCOC(=O)c1c(NC(=O)Cn2nnc(-c3ccc(Cl)cc3)n2)sc(C)c1C
    2	-10	-6.1	·	2	5	-28
CC(=O)OCCCn1c(C)[n+](C)c2cc(Cl)c(Cl)cc21
    4	11	1.7	3461	2	-14	-11
O=C(NC(=S)Nc1cc(Cl)ccc1N1CCOCC1)c1ccccc1[N+](=O)[O-]
    2	10	-1.5	4140	-11	-2	3
CC1CCN(S(=O)(=O)c2cn(C)c(=O)n(C)c2=O)CC1
    -8	-2	-12	6373	3	8	-19
Cn1c(SCC(=O)Nc2ccc3c(c2)OCO3)nnc1-c1cnccn1
    -2	5	4.4	2931	6	2	-22
COc1ccc(C(=O)C2CCN(C(=S)NCCc3ccc(OC)c(OC)c3)CC2)cc1
    2	24	12	4523	-1	4	1
CCC(C)OC(=O)C1=C(C)O[C@]23OC(N)=C(C#N)[C@]12C(=O)c1ccccc13 (stereo partly drawn)
    -6	0	0.1	3119	6	-12	-3
CC(=O)N1CCN(Cc2nc3cc(NS(C)(=O)=O)ccc3n2C)CC1
    3	9	3.6	7245	10	9	-19
CCOC(=O)CCNCc1ccc(F)cc1
    -15	2	-1.3	3827	3	4	-18
CCOC(=O)N1N=C(CC)CC1(O)C(F)(F)F (stereo not drawn)
    -2	3	1.0	4586	·	·	-16
COc1ccc(C(=O)N2CCc3cc(OC)c(OC)cc3C2c2cccc([N+](=O)[O-])c2)cc1OC (stereo not drawn)
    1	2	-2.1	2630	·	·	-30
CC(NC(=O)c1ccccc1)c1ccc(Br)cc1 (stereo not drawn)
    -6	2	1.2	4597	·	·	-6
COC(=O)[C@@H](NC(=O)NCc1cccc(OC)c1)C(C)C
    7	6	4.3	9390	12	9	-26
O=[N+]([O-])c1cccc(/C=N/Nc2ncc(Br)cn2)c1
    -6	·	·	3696	·	·	-80
COc1ccc(NS(=O)(=O)c2ccc(-c3coc(C)n3)cc2)cc1
    -1	-5	-0.1	4417	3	-9	-33
C=CCNC(=O)/C(C#N)=C/c1ccccc1Cl
    -5	-5	12	4426	7	9	-61
CNC(=S)N/N=C1\CC(c2ccccc2)Oc2ccccc21 (stereo not drawn)
    -1	·	·	4462	·	·	-29
Cc1cc2oc(=O)c(CC(=O)NCCCN(C)C)c(C)c2c2occ(C(C)(C)C)c12
    13	0	-3.2	·	19	8	·

# Next records follow.
# The line under a structure holds: BJeLR viability	ugtP null kill	Sa RN4220 lethal	Bead autofluor	Mtb hypoxia inh	Mtb hypoxia inh growth	PrP 5UTR inh
CN1C(=O)[C@H]2[C@@H](C3CC3)N3C(=O)CN(Cc4ccccc4)C(=O)[C@@]3(C)[C@H]2C1=O
    -1	·	·	4113	·	·	-13
CCOc1ccccc1NC(=O)CN1CCc2ccccc2C1
    0	9	12	3987	17	8	-16
CC(=O)Nc1ccc(NC(=O)CCCN2C(=O)c3ccccc3C2=O)cc1
    10	2	5.0	3233	1	7	-10
Cc1cccc(C(C)C)c1NC(=O)COC(=O)COc1ccc2c(C)cc(=O)oc2c1
    -10	7	5.8	2028	11	11	9
COc1cc(C(=O)Oc2ccccc2/C=N/NC(=O)c2ccc(C)cc2)cc(OC)c1OC
    11	·	·	2828	·	·	3
CC(=O)c1nnn(-c2cccc([N+](=O)[O-])c2)c1C
    0	8	4.8	4380	7	-1	-28
COc1ccc(-c2cn3cccc(C)c3n2)cc1F
    -8	-5	0.8	2211	5	-2	-121
O=c1cc(-c2ccccc2)[nH]n2cnnc12
    -4	3	5.8	3147	-6	-8	-1
COc1ccc(NC(=O)CN2CCN(c3ccc(F)cc3)CC2)cc1Cl
    4	3	-1.3	4690	·	·	-12
N=c1oc2ccccc2cc1-c1nc2ccccc2c(=O)[nH]1
    9	0	-0.2	5102	-1	8	-45

# Entries of single compounds, looked up by structure. Screens in order: BJeLR viability	ugtP null kill	Sa RN4220 lethal	Bead autofluor	Mtb hypoxia inh	Mtb hypoxia inh growth	PrP 5UTR inh
# `COc1ccc(NC(=O)CN2CCN(c3ccc(F)cc3)CC2)cc1Cl` is listed with 4	3	-1.3	4690	·	·	-12
# `COc1cc(C(=O)Oc2ccccc2/C=N/NC(=O)c2ccc(C)cc2)cc(OC)c1OC` is listed with 11	·	·	2828	·	·	3
# `O=c1cc(-c2ccccc2)[nH]n2cnnc12` is listed with -4	3	5.8	3147	-6	-8	-1
# `COc1ccc(-c2cn3cccc(C)c3n2)cc1F` is listed with -8	-5	0.8	2211	5	-2	-121
# `N=c1oc2ccccc2cc1-c1nc2ccccc2c(=O)[nH]1` is listed with 9	0	-0.2	5102	-1	8	-45

# Other structures follow.
# The line under a structure holds: BJeLR viability	ugtP null kill	Sa RN4220 lethal	Bead autofluor	Mtb hypoxia inh	Mtb hypoxia inh growth	PrP 5UTR inh
COc1ccc(NC(=O)C2=CC(c3ccc(C)cc3)=NS(=O)(=O)N2C)cc1OC
    3	-4	5.1	6054	1	2	3
O=C(CSc1nnc(COc2ccccc2F)n1-c1ccccc1)NCc1ccco1
    ·	-6	-13	3006	·	·	-24
Cc1ccccc1NC(=S)NCC(c1cccnc1)N1CCOCC1 (stereo not drawn)
    -5	2	3.2	2643	7	5	-8
CCOC(=O)CSc1nnc(COc2ccc3ccccc3c2)o1
    6	·	·	3961	·	·	-11
Cc1cc(Cl)ccc1NC(=S)NCCCO
    6	0	5.2	2621	1	11	-6
O=C(NC1CCCCC1)Oc1ccccc1
    -4	6	1.9	6409	15	8	-26
CSc1nc(-c2ccco2)nn1C(=O)c1ccccc1Cl
    4	10	3.1	4954	0	8	-3
N/C(=N\OC(=O)c1ccccc1)C(Cc1ccccc1)C(=O)NOC(=O)c1ccccc1 (stereo not drawn)
    ·	10	4.7	2904	17	7	-6
